Screening data: PubChem, several laboratories
UCH37 DUB inh – blocks the human deubiquitinase UCH37; Q9Y5K5; AID 588478; purified proteasome/UCH37, Ub-AMC cleavage fluorescence; inhibition, % (concentration not given with the values); 330,000 tested, 0.33% active;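 active = mean of two replicates above 20%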;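 also: 0% = compound-free wells with enzyme and 100% = wells lacking proteasome; stock transfer was 100 nL into about 20 µL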
Target sequence (Q9Y5K5 whole entry, looked up): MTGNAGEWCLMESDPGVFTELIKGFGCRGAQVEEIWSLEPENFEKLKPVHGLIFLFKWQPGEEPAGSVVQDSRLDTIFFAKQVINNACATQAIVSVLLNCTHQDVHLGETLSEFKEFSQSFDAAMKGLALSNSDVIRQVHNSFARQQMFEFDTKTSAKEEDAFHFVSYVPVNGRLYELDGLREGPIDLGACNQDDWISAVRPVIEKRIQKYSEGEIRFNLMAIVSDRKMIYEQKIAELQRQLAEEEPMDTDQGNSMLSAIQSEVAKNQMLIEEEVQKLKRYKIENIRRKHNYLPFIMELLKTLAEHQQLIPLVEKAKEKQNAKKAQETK
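Material: Human UCH37 enzyme supplied as purified proteasome complex | Schedule: 30 min preincubation with enzyme, 25 min cleavage at room temperature | Detection: AMC fluorescence 355/460 nm | Measure: % inhibition of Ub-AMC cleavage fluorescence | Controls: Wells without proteasome as full block, compound-free enzyme plus substrate as uninhibited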
FGF22 binding – shifts melting point of recombinant human FGF22 | Q9HCT0 | recombinant FGF22 thermal shift, SYPRO orange fluorescence; percent of sucrose octasulfate shift, DMSO zero | calls only at 9.99 µM | 340,000 tested, 1.5% active | AID 651658;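 active = melting point raised past a set limit in the mean and every replicate; inconclusive = no clear call; three in four hits are not shown here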
Target sequence (Q9HCT0 whole entry, looked up): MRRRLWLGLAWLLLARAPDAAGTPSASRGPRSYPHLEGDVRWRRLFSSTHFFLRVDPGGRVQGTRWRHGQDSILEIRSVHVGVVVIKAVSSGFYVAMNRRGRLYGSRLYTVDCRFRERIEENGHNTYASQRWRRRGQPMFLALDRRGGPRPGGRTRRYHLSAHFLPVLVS
RanGTP-Imp inh – inhibitors of RanGTP-importin-beta interaction, primary screen, biochemical, FRET, CFP-Ran, YFP-importin-beta, homogeneous | cell-free CFP-Ran/YFP-importin-beta FRET ratio | inhibition, % (concentration not given with the values) | 300,000 tested, 1.1% active | AID 2216;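 active = most replicates above 15%; inconclusive = exactly half above 15%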;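 also: 0% = DMSO wells and 100% = Ran loaded with GDP instead of GTP; wells of about 40 µL received 100 nL stock; the first replicate is given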
E coli growth – blocks Escherichia coli growth | OD600, 23 h; stronger effect = lower value | OD600 absorbance (concentration not given with the values) | 330,000 tested, 0.21% active | AID 1053175;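 active = OD600 absorbance below the run mean of sample wells minus 3.6 SD, in any replicate, cut at about 0.56 in these data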;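 also: stock transfer was 300 nL into about 60 µL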
Vif A3G – inhibitors of Vif binding to APOBEC3G peptide, primary screen, biochemical, TR-FRET, GST-Vif 1-94, biotin-A3G peptide, dose response retest (AID 1117319). TR-FRET GST-Vif / biotin-A3G peptide binding; higher % means a stronger effect; test concentration not given here; strong numbers were not always called active. inhibition, %, or IC50 in µM where a hit was titrated. 260,000 tested, 0.57% active;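 active = above the screen mean plus three standard deviations and confirmed in dose response; inconclusive = results disagree or hit not tested in dose response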;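 also: Vif residues 1-94 fused to GST binding biotinylated APOBEC3G peptide 110-148; 0% = full assay without inhibitor and 100% = GST in place of GST-Vif; retest series ran down from 100 µM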
HNF4A DNA FP – change in binding of human HNF4 alpha to DNA | P41235 | HNF4a-FITC DNA binding, fluorescence polarization, 1 h | activity change, % at 10 µM | 360,000 tested, 0.3% active | AID 1224865; in the data active = activity change above about 30%, passing the limit was not always enough;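 also: controls were the assay level and a saturating level of protein; the project sought stronger binding though the title names inhibitors; some compounds called inactive have numbers as strong as hits; positive values seem to mean higher polarization but the record does not say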
MLL AF4-AF9 inh – blocks AF4 peptide binding to human AF9. AlphaScreen, biotin-AF4 peptide binding to FLAG-AF9. 350,000 tested, 0.47% active. AID 651704. inhibition, % at 10 µM;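 active = every replicate reaching a set inhibition limit, whatever the replicate mean, cut at about 25% in these data; inconclusive = mean inhibition reaches that limit but some replicates miss it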;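 also: 0% = plate neutral control median and 100% = total signal loss; the record names both 10 and 1 µM as test concentration; the first replicate is given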
Target sequence (P42568 whole entry, looked up): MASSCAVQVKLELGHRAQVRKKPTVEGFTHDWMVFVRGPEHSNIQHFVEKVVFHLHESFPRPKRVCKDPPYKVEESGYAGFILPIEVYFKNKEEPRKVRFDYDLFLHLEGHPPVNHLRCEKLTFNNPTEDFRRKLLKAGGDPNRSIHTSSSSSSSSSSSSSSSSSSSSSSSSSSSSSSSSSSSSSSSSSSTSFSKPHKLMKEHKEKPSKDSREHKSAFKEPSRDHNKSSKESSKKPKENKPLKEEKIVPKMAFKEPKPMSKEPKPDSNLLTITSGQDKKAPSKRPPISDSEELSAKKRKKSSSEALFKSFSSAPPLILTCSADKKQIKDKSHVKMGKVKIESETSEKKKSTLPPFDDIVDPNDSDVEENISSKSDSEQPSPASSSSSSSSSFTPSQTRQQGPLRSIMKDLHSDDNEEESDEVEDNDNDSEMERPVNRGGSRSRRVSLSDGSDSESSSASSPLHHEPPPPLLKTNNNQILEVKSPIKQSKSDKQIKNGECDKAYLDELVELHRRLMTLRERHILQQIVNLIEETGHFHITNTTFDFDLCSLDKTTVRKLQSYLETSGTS
The depositor's hits bear a star; i = inactive; u = inconclusive; x = not tested or not shown.

| smiles | UCH37 DUB inh | FGF22 binding | RanGTP-Imp inh | E coli growth | Vif A3G | HNF4A DNA FP | MLL AF4-AF9 inh |
| --- | --- | --- | --- | --- | --- | --- | --- |
| COCCNC(=O)CN1CCN(S(=O)(=O)c2ccc3c(c2)CCCC3)CC1 | 1.8 | i | x | 0.67 | 0% | 3.5 | 0.5 |
| Cn1cnnc1Sc1ccc(CN2CCN(C3CCCC3)C(CCO)C2)o1 (centres undefined) | -0.5 | i | -0.7 | 0.67 | x | -2.3 | -1.9 |
| Cc1cc(-c2ccccc2)nc(SCC(=O)N2CCCC2)n1 | -0.5 | i | -0.4 | 0.69 | -4% | -0.3 | -1.0 |
| NC(=O)C(NC(=O)OCc1ccccc1)c1ccccc1 (centres undefined) | 3.8 | i | 4.0 | 0.69 | x | -6.1 | -3.3 |
| O=S1(=O)CC2N=C(N(Cc3c(F)cccc3Cl)c3ccccc3F)SC2C1 (centres undefined) | 2.5 | x | 8.8 | 0.73 | x | 0.4 | x |
| Cc1cc(Br)ccc1SCC(=O)OCC(=O)N1CCN(C(=O)c2ccco2)CC1 | -0.4 | x | 0.2 | 0.76 | -4% | 1.7 | x |
| CCOc1ccc(-c2cc(C(=O)N/N=C(\C)c3cccnc3)c3ccccc3n2)cc1 | x | i | 3.5 | x | x | -1.2 | 1.2 |
| Cc1ccc(S(=O)(=O)N(C)c2ccc(C(=O)N(CC(C)C)C3CCS(=O)(=O)C3)cc2)cc1 (centres undefined) | 0.1 | i | 0.2 | 0.68 | 3% | 2.8 | -10 |
| O=C(NNC(=O)c1ccc2c(=O)n3c(nc2c1)CCC3)c1ccc(F)cc1 | 3.3 | i | 3.0 | 0.67 | 8% | -0.1 | -34 |
| CCN(CC)S(=O)(=O)c1ccc(N2CCOCC2)c(NC(=O)c2ccc(F)cc2)c1 | 7.1 | i | -2.2 | 0.69 | -3% | 2.2 | -1.0 |
| Cc1cc(C)cc(NC(=O)C(Sc2ncnc3ccccc23)c2ccccc2)c1 (centres undefined) | 3.9 | i | 4.7 | 0.72 | -3% | 0.0 | -2.8 |
| Cc1ccc(S(=O)(=O)N2CCN=C2SCc2ccccc2)cc1 | 2.3 | i | -0.9 | 0.7 | -4% | -0.5 | -2.5 |
| COCCNC(=O)C(=O)NNC(=O)c1ccccc1OC | 2.2 | x | -0.8 | 0.68 | x | 1.6 | 0.0 |
| CC(C)Cn1c(N)c(C(=O)COC(=O)c2ccc3c(c2)OCCO3)c(=O)n(C)c1=O | 1.4 | x | -1.3 | 0.72 | 1% | -0.1 | x |
| CC(NC(=O)c1cccc(OC2CCN(C3CCN(C)CC3)CC2)c1)c1ccccc1 (centres undefined) | 1.1 | i | 2.8 | 0.69 | x | 7.7 | 0.0 |
| CCOc1ccc(CCNC(=O)C2CCCN(C(=O)N(C)C)C2)cc1OCC (centres undefined) | 5.2 | x | 1.8 | 0.67 | 11% | 1.0 | x |
| CCN(CC)C(=O)CSc1nc2c(sc(=S)n2-c2ccccc2)c(=O)n1Cc1ccco1 | 6.3 | x | u | 0.71 | 16% | -0.5 | x |
| C/C(=N\Nc1nncc2ccccc12)c1ccc(OCC(=O)N(C)C)cc1 | x | i | 1.1 | x | x | 2.9 | -0.1 |
| COc1ccc(CNC(=O)C2CCN(S(C)(=O)=O)CC2)c(OC)c1 | x | i | -3.8 | x | 12% | 0.3 | 8.0 |
| COc1ccc(NC(=O)Cc2c(F)c(F)c(F)c(F)c2F)cc1OC | 1.9 | i | 2.1 | 0.72 | 3% | 0.7 | 2.2 |
| COc1cc(-c2cc(C(=O)NCc3ccc(S(N)(=O)=O)cc3)c3ccccc3n2)cc(OC)c1OC | -17 | i | -1.3 | 0.7 | x | -0.8 | 2.0 |
| O=C(CC1CCCCC1)NCCCN1CCOCC1 | 1.6 | i | -1.9 | 0.7 | 11% | 0.7 | 2.6 |
| Cc1ccc(-c2nnc(SCC(=O)N/N=C/c3ccccc3C(=O)O)n2-c2ccc(C)cc2)cc1 | x | i | -2.0 | x | -9% | -1.2 | 5.1 |
| Cc1ccc(S(=O)(=O)NC(CCc2ccccc2)CC(=O)C(C)(C)C)cc1 (centres undefined) | -0.5 | x | x | 0.69 | -3% | x | x |
| CCOCCCNC(=O)C1CCN(C(=O)N(C)C)CC1 | 6.1 | i | -1.0 | 0.67 | 8% | -0.7 | -0.4 |
| COc1ccc(COC(=O)C2CCN(S(=O)(=O)c3ccc(OC)c(OC)c3)CC2)cc1 | 2.0 | i | x | 0.67 | -3% | 3.9 | -3.8 |
| CC(C)(C)c1cc(C(=O)O)nn1-c1ccccc1 | 6.1 | x | -0.9 | 0.69 | 3% | -3.7 | x |
| COc1cc(OC)c(NC(=O)c2ccc(F)cc2)cc1Cl | -20 | x | -0.9 | 0.68 | x | 1.4 | -0.8 |
| COc1ccccc1Nc1nc(C)cc(C)n1 | 4.0 | i | -0.4 | 0.61 | -3% | -4.2 | -2.2 |
| CCOC(=O)C1C(C(=O)Nc2cccc(C(F)(F)F)c2)C1C(=O)NC(C)C (centres undefined) | 2.4 | x | 3.0 | 0.68 | x | -0.8 | -4.4 |

Following part
| smiles | UCH37 DUB inh | FGF22 binding | RanGTP-Imp inh | E coli growth | Vif A3G | HNF4A DNA FP | MLL AF4-AF9 inh |
| --- | --- | --- | --- | --- | --- | --- | --- |
| COc1ccc(CN2CCNC(=O)C2CC(=O)NC2CCCCCC2)c(C)c1C (centres undefined) | 4.2 | i | -2.7 | 0.7 | 0% | 1.5 | -10 |
| Cc1ccc(C(=O)N2CCc3ccccc32)cc1 | 1.3 | x | u | 0.61 | 8% | 2.5 | x |
| COC(=O)C1[C@H]2C(=O)N(Cc3cccs3)C[C@]23C=C[C@H]1O3 (some centres undefined) | 3.7 | x | -4.7 | 0.71 | -1% | 4.3 | -0.9 |
| Cc1ccc(C)c(S(=O)(=O)NCc2ccc(C(=O)N3CCC(Cc4ccccc4)CC3)cc2)c1 | 1.0 | x | 3.6 | 0.74 | 25% | 1.1 | x |
| Cc1ccccc1NC(NC(=O)c1cccs1)C(Cl)(Cl)Cl (centres undefined) | -2.7 | x | 7.1 | 0.73 | 7% | -4.2 | x |
| COCCCn1c(SCc2nnc(-c3ccccc3)o2)nc2sc3c(c2c1=O)CCC3 | 5.3 | x | -0.3 | 0.74 | 26% | -1.2 | x |
| COc1ccc(NC(=O)C23CC4CC(C2)CC(c2ccccc2)(C4)C3)c(OC)c1 | 3.9 | x | 2.2 | 0.67 | 20% | -0.7 | x |
| CCOC(=O)c1nn(-c2ccc(OCC)cc2)c2nc(-c3cccc(OC)c3)c(C#N)c(=O)n12 | -367 | i | u | 0.64 | x | -0.9 | -0.9 |
| Oc1ccccc1-c1cc(C(F)(F)C(F)F)[nH]n1 | 1.7 | x | -2.8 | 0.62 | 4% | -4.6 | x |
| Cc1cccc(Nc2nc(Cl)ncc2F)c1C | 3.9 | i | 0.7 | 0.7 | x | 1.4 | 4.1 |
| Cc1cc(N=Cc2c(O)n(-c3cccc(C(F)(F)F)c3)c(=O)c3ccccc23)no1 | 0.7 | x | 6.3 | 0.72 | -6% | -0.6 | x |
| O=C(COC(=O)CNS(=O)(=O)c1cc(C(F)(F)F)ccc1Cl)NC1CC1 | x | i | x | x | x | 5.9 | -1.1 |
| CCC1CCCCN1C(=O)CSc1nc2ncccc2[nH]1 (centres undefined) | 5.8 | i | 4.8 | 0.7 | -7% | -1.5 | -0.4 |
| CCCCNc1ncnc2[nH]ncc12 | -5.4 | i | x | 0.68 | 13% | -1.8 | -4.4 |
| CCc1cccc2c(C(=O)CSc3nncn3-c3ccc(OC)cc3)c[nH]c12 | 3.3 | i | 8.7 | 0.65 | x | 0.1 | 5.0 |
| CCC(C)(C)NC(=O)CN(Cc1ccc(OC)cc1)C(=O)CCC(=O)Nc1nccs1 | 3.3 | x | -0.9 | 0.7 | x | 1.2 | 2.0 |
| CCCc1nc2ccc(Cl)cn2c1Cc1ccc(C)cc1 | x | i | x | x | x | 4.3 | 3.2 |
| O=S(=O)(c1ccc(NC(=S)NC2CC2)cc1)N1CCOCC1 | 5.0 | i | -0.5 | 0.68 | 3% | 0.1 | -0.4 |
| Cc1cccc(CC(=O)Nc2sc(C(C)C)cc2C(=O)N2CCOCC2)c1 | -0.7 | i | 2.4 | 0.63 | x | 5.4 | -1.6 |
| CCC(=O)c1ccc(OCC(O)CNC2CCCC2)cc1 (centres undefined) | -1.5 | i | -1.7 | 0.66 | x | 0.2 | -3.7 |
| CCOc1ccc(/C=N/NC(=O)CSc2ccccn2)cc1O | x | i | 2.6 | x | u | 2.2 | -4.0 |
| CC1CC(C)CN(C(=O)c2nn(C)c3c2CSc2ccccc2-3)C1 (centres undefined) | 3.3 | i | -0.1 | 0.69 | x | 1.5 | -5.8 |
| CCN(C(=O)COC(=O)c1ccccc1Nc1cccc(C)c1C)C1CCS(=O)(=O)C1 (centres undefined) | 0.4 | x | -0.4 | 0.69 | 0% | 1.4 | x |
| Cc1nc(NC(=O)CN2CCCCC2)sc1C(=O)N(C)C | 0.5 | i | u | 0.71 | x | -2.6 | -3.0 |
| Cc1cc(C)n(C(=O)CCC(=O)NCc2ccccc2)n1 | -1.8 | i | -1.4 | 0.72 | 6% | -5.3 | -49 |
| COc1cc(OC)cc(C(=O)Nc2cccc3c2CCCC3)c1 | 4.3 | i | -0.6 | 0.7 | -2% | 0.8 | -2.5 |
| O=C(Nc1cccc(S(=O)(=O)N2CCCCC2)c1)C1CCCC1 | -0.9 | i | x | 0.7 | -1% | -3.1 | u |
| Cc1ccc(S(=O)(=O)NCC(=O)OCC(=O)Nc2ccccc2OC(F)F)cc1 | 2.0 | i | -5.7 | 0.69 | x | 5.7 | 1.0 |
| Nc1nccc(SCc2ccc(Cl)cc2Cl)n1 | -1.1 | i | x | 0.66 | -6% | 1.9 | 2.0 |
| CC(=O)Oc1ccc2c(=O)c(-c3ccccc3)coc2c1 | -35 | i | 1.2 | 0.69 | x | -2.5 | -2.5 |

Going on with the list.
| smiles | UCH37 DUB inh | FGF22 binding | RanGTP-Imp inh | E coli growth | Vif A3G | HNF4A DNA FP | MLL AF4-AF9 inh |
| --- | --- | --- | --- | --- | --- | --- | --- |
| Cc1c(CCC(=O)O)c(=O)oc2cc3occ(-c4ccc(Cl)cc4)c3cc12 | -29 | i | 0.6 | 0.67 | 3% | 2.8 | 1.7 |
| O=C(Nc1cccc(C(F)(F)F)c1)C(Sc1cccc[n+]1[O-])c1ccccc1 (centres undefined) | 1.0 | i | -2.8 | 0.71 | 3% | 0.2 | 9.3 |
| O=C(CN1CCCC1)Nc1ccccc1C(=O)c1ccccc1 | 3.2 | i | -1.2 | 0.71 | x | -1.1 | -2.5 |
| COc1ccc(CNC(=O)C(C)N2C(=O)COc3ccc(C)cc32)c(OC)c1 (centres undefined) | -1.6 | i | -0.9 | 0.66 | -16% | 3.2 | -1.5 |
| OCc1ccc(-c2nn(Cc3ccccc3)c3ccccc23)o1 | -8.5 | i | -3.8 | 0.64 | x | -3.6 | 9.5 |
| CC1CC(C)CN(S(=O)(=O)c2ccc(F)c(C(=O)NC3CCCCC3C)c2)C1 (centres undefined) | x | i | x | x | -4% | -4.9 | -1.8 |
| CCN(CC)CCCNC(=O)c1csc(Nc2cccc3ccccc23)n1 | 3.8 | i | 2.0 | 0.61 | x | 0.4 | 17 |
| O=C(NCCCc1ccccc1)C(=O)NCC1OCCN1S(=O)(=O)c1cc(F)ccc1F (centres undefined) | -4.0 | i | 0.1 | 0.73 | -5% | 0.3 | -1.3 |
| Cc1ccccc1NC(=O)Cn1nc(-c2ccc(Cl)s2)ccc1=O | -7.3 | i | 4.5 | 0.63 | x | -1.6 | -0.7 |
| COc1cc(OC)cc(C(=O)Nc2ccccc2C(=O)NC2CC2)c1 | 0.7 | i | x | 0.71 | -13% | -2.0 | 2.7 |

Some of the compounds tested; the hit share may differ from the screen's.
